D2 potentiator: Beta-Arrestin HTS for Positive Allosteric Modulators of the Human D2 Dopamine Receptor: Potentiators | D(2) dopamine receptor (Homo sapiens), P14416 | DiscoveRx D2 beta-arrestin cells, luminescence, 90 min; 100% = 57 uM dopamine signal | potentiation, % (no concentration beside the values) | 360,000 tested, 0.23% active | AID 624464, 2012; active = potentiation of 50% or more; inconclusive = 30% to 50%; inactive = 30% or less;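 also: compound concentration not given in the record; tested on top of an EC20 dose of dopamine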
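PathHunter beta-arrestin assay in DiscoveRx D2 cells. Compounds were added with an EC20 of dopamine (50 nM final) for 90 min at 37 deg C. Luminescence was read 1 h after detection reagent, with 57 uM dopamine as the EC100 control.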
D2 agonist: Beta-Arrestin HTS for Positive Allosteric Modulators of the Human D2 Dopamine Receptor: Agonists | activation, % (concentration not given with the values) | D(2) dopamine receptor (Homo sapiens), P14416 | DiscoveRx PathHunter D2 beta-arrestin, luminescence, 90 min; 100% = 57 uM dopamine signal | 360,000 tested, 0.084% active; in the data active = activation above about 40%; inconclusive = about 15% to 40%; inactive = below about 15%; also: compound concentration not given in the record; the text of the record calls up to 30% inactive
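Agonist mode: compounds alone added to overnight-plated D2 PathHunter cells for 90 min at 37 C, with 57 uM final dopamine (EC100) defining full response. Beta-arrestin recruitment detected by chemiluminescent reagent, read after 1 h at ambient temperature.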
TRPML1 blocker: qHTS for Inhibitors of the Human Mucolipin Transient Receptor Potential 1 (TRPML1) | activity change, negative = inhibition, % (concentration not given with the values) | 390,000 tested, 0.02% active | Mucolipin-1 (Homo sapiens), Q9GZU1 | TRPML1-inducible cells, Ca2+ dye fluorescence, FDSS; hits give low values; inhibition of EC80 agonist-evoked calcium signal | AID 624415, 2012; in the data active means activity change below about -50%; inconclusive means about -30% to -50%; inactive means above about -30%;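 also: stimulus is agonist 54-4 at its EC80 concentration; % is scaled to controls: 0 for no effect and ±100 for the full control effect; compound concentration not given in the record; the text of the record puts the active cut at -80%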
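Calcium fluorescence in TRPML1-DL cells induced overnight with Tet: a 110 s read after compound pin addition, then a 110 s antagonist read after challenge with 54-4 at 4 uM final (EC80).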
PINK1 expr mod: A Quantitative High throughput Screen to Identify Chemical Modulators of PINK1 Expression | PINK1 immunofluorescence, high-content cytometry, 24 h | 410,000 tested, 0.2% active | Potency, µM (doses to about 76.6 µM), for the others: at the top dose activation (PINK1 increase), actives largely listed as activators | AID 624263, 2012; active = well fitted activation curve with a large enough effect; inconclusive = small, poorly fitted or top-dose-only effect; inactive = flat fitted curve, though single readings scatter; cell line not stated here;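 also: potency is read from the fitted curve at half-maximal effect; % of control where 0% means no effect; nearly all actives have a fitted effect of over 65% in size; a mitochondrial uncoupler was the plate control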
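Cells are seeded, rested 12 hours, then given compound at five concentrations or DMSO for 24 hours. After fixation, blocking and antibody staining, PINK1 amount and mitochondrial localization are scored; CCCP serves as control.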
TRPML1 agonist: qHTS for Agonists of the Human Mucolipin Transient Receptor Potential 1 (TRPML1) | TRPML1-expressing cells, Ca2+ dye fluorescence, FDSS; host cell line not named in the record; reference of the full effect not given here | activation, % (no concentration beside the values) | 410,000 tested, 0.12% active | AID 624414, 2012; in the data active = activation above about 50%; inconclusive = about 30% to 50%; inactive = below about 30%; also: 0% is about no effect; the text of the record puts the active cut at 80%
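TRPML1-DL cells, Tet-induced overnight (~16 h, 37 degrees C), loaded 45-90 min at room temperature with Ca8 no-wash calcium dye plus quencher. FDSS fluorescence: 10 s baseline, compound pin-transfer, 110 s agonist read, then EC80 54-4 (4uM final) and 110 s antagonist read.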
Six1-Eya2 blk: qHTS Assay for Inhibitors of the Six1/Eya2 Interaction. Homeobox protein SIX1 (Homo sapiens) + Protein phosphatase EYA2 (Homo sapiens), …. AlphaScreen GST-Six1/His-Eya2 binding, biochemical; hits give low values; control for the full effect not named in the record. activity change, % (test concentration not listed). 360,000 tested, 0.56% active. AID 651725, 2012; in the data active = activity change below about -65%; inconclusive = about -30% to -65%; inactive = above about -30%; also: % is scaled to controls: 0 for no effect and ±100 for the full control effect; compound concentration not given in the record
Target sequence (O00167 whole entry, looked up): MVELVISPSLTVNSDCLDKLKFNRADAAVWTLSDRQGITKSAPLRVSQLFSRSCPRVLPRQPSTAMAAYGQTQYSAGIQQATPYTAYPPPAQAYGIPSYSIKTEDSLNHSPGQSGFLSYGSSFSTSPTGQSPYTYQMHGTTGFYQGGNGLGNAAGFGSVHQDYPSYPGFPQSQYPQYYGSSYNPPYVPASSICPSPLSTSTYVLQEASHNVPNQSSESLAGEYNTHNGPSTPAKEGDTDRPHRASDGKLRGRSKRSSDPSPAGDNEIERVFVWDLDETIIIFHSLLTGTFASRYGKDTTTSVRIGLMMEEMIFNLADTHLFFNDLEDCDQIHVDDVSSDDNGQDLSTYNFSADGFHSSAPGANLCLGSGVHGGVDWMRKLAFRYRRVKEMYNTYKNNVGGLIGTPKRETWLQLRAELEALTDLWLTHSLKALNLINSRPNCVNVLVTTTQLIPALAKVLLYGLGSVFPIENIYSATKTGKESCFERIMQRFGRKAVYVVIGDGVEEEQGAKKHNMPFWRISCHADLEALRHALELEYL
Target sequence (Q15475 whole entry, looked up): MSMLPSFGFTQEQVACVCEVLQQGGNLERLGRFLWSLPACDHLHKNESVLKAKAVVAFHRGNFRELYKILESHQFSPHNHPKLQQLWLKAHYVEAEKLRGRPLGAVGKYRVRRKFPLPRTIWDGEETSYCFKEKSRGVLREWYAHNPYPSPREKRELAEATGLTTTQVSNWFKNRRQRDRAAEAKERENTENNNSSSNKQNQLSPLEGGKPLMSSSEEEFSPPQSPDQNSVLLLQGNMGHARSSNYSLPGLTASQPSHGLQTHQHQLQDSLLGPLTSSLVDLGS
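Compounds are tested against tagged Six1 and Eya2 proteins bridged by glutathione donor and nickel acceptor beads; after a one-hour incubation at 37 °C without light, AlphaScreen emission is recorded.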
* marks the source's active call; other numbers are inactive results; ? = inconclusive; . = not tested or not shown; & = joins results of further samples; [ ] = remark or other dose.

SMILES	D2 potentiator	D2 agonist	TRPML1 blocker	PINK1 expr mod	TRPML1 agonist	Six1-Eya2 blk
COc1ccc(C2=NOC(C(=O)NCc3ccc(F)cc3)C2)cc1OC (stereo unspecified)	-8	1.0	-3	2.8µM*	0.7	-1
COc1ccc(SCC(=O)c2cc(C)c(OC(=S)N(C)C)c(C)c2)cc1	8	-0.9	3	-1.0%	0.1	-1
COc1ccccc1NS(=O)(=O)c1ccc(Br)s1	-14	-1.2	-5	-0.1%	0.0	7
COc1cccc(Nc2nc(-c3sc(N)nc3C)cs2)c1	-7	0.8	4	0.8%[38.3 µM]	-0.5	?
CN(C(=O)CSc1nnnn1-c1ccc(O)cc1)C1CCCCC1	0	4.9	47	0.0%	-0.4	-2
Cc1ccccc1OCCN1C(=O)NC2(CCCc3ccccc32)C1=O (stereo unspecified)	-34	-2.0	14	-3.2%	2.1	1
CC(=O)c1c(C)[nH]c(C(=O)CN2C(=O)NC(C)(c3ccc(C)cc3)C2=O)c1C (stereo unspecified)	-4	-4.3	-4	2.7%	8.8	1
CN(C(=O)CCc1nc2ccccc2s1)c1ccccc1	-10	-1.7	-13	-1.1%[38.3 µM]	-0.4	4
CCOC(=O)c1ccc2[nH]c(C)c(C)c2c1	-25	-4.2	-3	-1.6%	-1.4	-9
CCCC(O)(CCC)C(=O)NNc1ccc(C)cc1	-12	-8.4	-2	1.4%	-0.1	-12
COC(=O)c1cc(C#N)c(Oc2ccc(OC)cc2)nc1C	-2	0.6	9	-2.6%	1.3	15
CCCCNC(=O)CCC(=O)NNc1nc2ccccc2c2nc(C)nn12	-22	-2.4	-17&-6	-0.2%&-1.1%	-0.1&0.6	-19
Cc1ccc(C(C)NC(=S)NC2CCCCC2)c(C)c1 (stereo unspecified)	-13	-5.0	7	?	0.4	-9
CC(CN1CCOCC1)OC(=O)c1ccccc1Br (stereo unspecified)	-13	0.6	-9	-0.2%	-0.6	-2
Cc1cc(C)c(NC(=O)C(C)n2nc(-c3ccc(C)c(C)c3)ccc2=O)c(C)c1 (stereo unspecified)	.	.	5	0.9%	0.4	.
COc1ccc(C(=O)NCCN2C(=O)S/C(=C\c3cccnc3)C2=O)c(OC)c1OC	4	-6.6	-12	1.9%	-2.1	-5
CC(=O)Nc1ccc(NC(=O)C2CCCN2C(=O)Nc2ccccc2[N+](=O)[O-])cc1 (stereo unspecified)	3	0.7	21	0.2%	0.7	4
O=[N+]([O-])c1cc(Cl)ccc1NCCNc1ncc(C(F)(F)F)cc1Cl	8	-5.7	-7	8.7%	1.5	-4
O=C(COC(=O)C1CC(=O)N(Cc2ccccc2)C1)c1ccc(Br)cc1 (stereo unspecified)	-31	-8.3	-20	-0.1%	0.7	5
CC(C)c1ccccc1NC(=O)Nc1ccc(F)cc1F	-10	-4.7	4	7.3%	-0.2	-17
COc1ccc(CC2(C)OC(c3ccc([N+](=O)[O-])cc3)=NN2C(C)=O)cc1 (stereo unspecified)	4	-4.6	-24	0.6%	1.0	?
Cc1ccc(NC(=O)NC2CCCc3ccccc32)cc1 (stereo unspecified)	-1	0.0	-14	8.8%	-0.6	3
COc1ccc(C2CC(=O)c3c(O)cc(O)cc3O2)c(CC=C(C)C)c1OC (stereo unspecified)	-32	4.5	.	11%	.	15
C[N+]1(CC2COC3(CCCCC3)O2)CCCCC1 (stereo unspecified)	-7	-3.4	3	3.5%	0.4	2
CCCc1nnc(SCC(=O)N2CCCCC2)n1CCCOC	-9	-1.4	-2	-1.2%	-0.3	-2

The last two compounds of the section before are carried over, then new ones follow:
SMILES	D2 potentiator	D2 agonist	TRPML1 blocker	PINK1 expr mod	TRPML1 agonist	Six1-Eya2 blk
C[N+]1(CC2COC3(CCCCC3)O2)CCCCC1 (stereo unspecified)	-7	-3.4	3	3.5%	0.4	2
CCCc1nnc(SCC(=O)N2CCCCC2)n1CCCOC	-9	-1.4	-2	-1.2%	-0.3	-2
Cc1ccc(C2(C)NC(=O)N(CC(=O)NCCN3C(=O)S/C(=C\c4cccnc4)C3=O)C2=O)cc1 (stereo unspecified)	-10	-2.5	6	3.0%	3.4	11
Cc1oc(-c2ccccc2F)nc1CS(=O)CC(=O)NCc1ccc2c(c1)OCO2 (stereo unspecified)	-3	1.0	-12	-0.1%	1.0	4
COc1ccccc1N1CCN(/N=C/c2ccc([N+](=O)[O-])cc2)CC1	-3	3.8	41	5.7%	0.6	0
Cc1ccc(NC(=S)N2CCN(S(=O)(=O)c3c(F)cccc3F)CC2)cc1C	-1	-3.1	-8	0.0%	1.5	1
Cc1ccc(-c2cnc(NCc3ccc(C(F)(F)F)cc3)n2C)cc1	.	.	10	7.3%	4.4	.
CC(C)(C)c1ccc(-n2ncc3c2CCCC3NC(=O)CN2CCCC2=O)cc1 (stereo unspecified)	-4	5.1	9	0.8%	0.1	0
CCOC(=O)c1c(C)nc2sc3c(=O)n(-c4ccc(C)cc4)cnc3c2c1-c1ccc(OC)cc1	-16	-6.9	-9	2.2%	-0.1	7
CC1(C(=O)O)C=CC2(CCCCC2)N1C(=O)c1ccccc1 (stereo unspecified)	-38	-2.7	-9	0.4%	-0.9	0
Cc1ccc(C(=O)Nc2ncc(C)s2)o1	-11	-2.3	17	-2.0%[38.3 µM]	0.4	-1
CCCCOc1ccc(Cl)cc1CSc1nnc(C)n1N	-7	-1.1	1	27%[38.3 µM]	0.9	-1
CCCc1cc(C(=O)NNC(=S)Nc2cccc(C)c2)cs1	-35	-11	-3	1.9%	-0.7	-18
O=C(Nc1cccc(Cl)c1)c1ccc(NCC2CCCO2)c([N+](=O)[O-])c1 (stereo unspecified)	-5	11	-7	?	2.2	5
Cc1ccc(CNC(=O)CN2CCCC(C)C2)cc1 (stereo unspecified)	-4	-5.8	-5	-2.2%	-0.7	-1
COc1ccc(CCNC(=O)[C@H](CC(C)C)NC(=O)N2CCn3c2nc2ccccc23)cc1OC	-12	0.0	-11	4.7%	0.0	15
CC(C)(C)c1ccc(C(=O)N2CCC(=O)N([C@H](COCc3ccccc3)Cc3ccccc3)CC2)cc1	.	.	.	-0.6%	-0.4	-4
COC(=O)c1[nH]c2ccc(Br)cc2c1NC(=O)C(C)N1CCN(C2CCCCC2)CC1 (stereo unspecified)	-31	-2.2	0	3.1%	-0.6	-7
COc1cc(/C=C2/SC(=O)N(CC(=O)N3CCCC3)C2=O)ccc1Oc1ccc([N+](=O)[O-])cn1	-7	0.7	19	1.1%	1.1	0
COc1ccc(/C=C/C(=O)NC(=S)NNC(=O)c2ccco2)cc1	-21	-3.5	-13	4.0%	-1.0	-19
NC1=NC(=Nc2ccc(Br)cc2)c2ccccc21	-8	1.5	-19	-1.7%	1.3	-4
COc1cc(CNc2ccccc2)c([N+](=O)[O-])cc1OC	19	?	6	0.6%	1.6	-21
O=c1c2c(nc3n1CCCCC3)sc1c(O)cccc12	-22	-3.9	10	-1.7%	-0.5	-11
COc1ccc(-c2cc(-c3ccccc3)nc(SCC(=O)Nc3ccccc3C)c2C#N)cc1	.	.	11	1.7%	0.9	.
CC(=O)c1cn(CC(=O)NCc2cccnc2)c2ccccc12	-1	1.6	9	-3.0%[38.3 µM]	0.4	-1
CC1CCCCC12NC(=O)N(CC(=O)N1CCN(Cc3ccc(C#N)cc3)CC1)C2=O (stereo unspecified)	-4	-3.0	26	1.4%	0.4	12
CCOc1ccc(-c2cc(C(=O)Oc3ccc(C#N)cc3)no2)cc1	.	.	-10	2.1%	-0.1	.

Next part:
SMILES	D2 potentiator	D2 agonist	TRPML1 blocker	PINK1 expr mod	TRPML1 agonist	Six1-Eya2 blk
CCc1ccc(N2CC(C(=O)Nc3ccc(S(=O)(=O)Nc4ncccn4)cc3)CC2=O)cc1 (stereo unspecified)	-2	0.1	4	-0.9%	-0.5	3
O=C(NCc1ccccn1)c1ccccc1-c1ccccc1	-13	-0.2	7	-0.6%	2.9	-9
O=C(Nc1ccccc1)C1CCCCN1S(=O)(=O)c1ccccc1 (stereo unspecified)	-3	-4.5	2	1.1%	-0.1	6
COCCNC(=O)C(=O)N/N=C/c1cccs1	-3	-4.9	-14	-0.9%	0.7	-6
Cc1cccc(-c2cc(C(=O)NCc3ccccn3)c3ccccc3n2)c1	-17	-6.5	-13	0.0%	0.3	-6
C=CCn1c(SCN2C(=O)c3ccccc3C2=O)nc2ccc(Cl)cc2c1=O	2	-1.1	-4	9.3%	0.3	16
O=S1(=O)CC(N2CCN(CCO)CC2)CN1C1CCCCC1 (stereo unspecified)	-7	-3.8	.	-0.1%	-0.3	1
CCCCC[C@H](C)N1C[C@@H](COCc2ccccc2)Oc2cc(N3CC[C@@H](N(C)C)C3)ccc2S1(=O)=O	.	.	.	-1.4%	-0.5	?
Cn1c(=O)c(C(=O)O)nn(-c2ccccc2)c1=O	.	.	-2	4.9%	-0.7	.
Cc1cc(C)c(NC(=O)COC(=O)Cc2cccs2)c(C)c1	0	-4.1	-2	1.6%	-0.4	7
O=[N+]([O-])c1ccc(S(=O)(=O)N/N=C/c2ccc3c(c2)OCO3)cc1	-2	-0.4	0	0.1%	0.1	0
CN(C)S(=O)(=O)c1ccc(/C(O)=C2/C(=O)C(=O)N(CCCN3CCOCC3)C2c2ccncc2)cc1 (stereo unspecified)	2	0.9	13	4.7%	1.5	1
CC(CCCN(C)C)C(Cc1ccccc1)c1ccccc1 (stereo unspecified)	-18	-7.6	-12	0.0%	1.0	-11
CC(=O)c1cccc(-c2ccnc3c2CC(C(=O)Nc2ccc(F)c(Cl)c2)O3)c1 (stereo unspecified)	-2	4.2	.	0.6%	-0.5	-24
COCCSc1ccccc1C(=O)Nc1ccc(Cl)cn1	-13	-2.8	-2	2.8%	-0.7	-17
COc1ccccc1C(=O)Nc1cccc(NC(=O)c2ccccc2OC)n1	0	1.2	-1	0.6%	-0.1	-11

Profiles, looked up by structure.
Results for CC(CCCN(C)C)C(Cc1ccccc1)c1ccccc1 (stereo unspecified) : D2 potentiator = -18; D2 agonist = -7.6; TRPML1 blocker = -12; PINK1 expr mod = 0.0%; TRPML1 agonist = 1.0; Six1-Eya2 blk = -11
Results for COc1ccccc1C(=O)Nc1cccc(NC(=O)c2ccccc2OC)n1 : D2 potentiator = 0; D2 agonist = 1.2; TRPML1 blocker = -1; PINK1 expr mod = 0.6%; TRPML1 agonist = -0.1; Six1-Eya2 blk = -11

Source: PubChem BioAssay
